# 2A StopGo = FMDV 2A StopGo reporter, luciferase signal; human cells with a luciferase reporter of 2A StopGo recoding; control for the full effect not named in the record; Potency, µM (top dose mostly 57.9 µM), without a hit: at the top dose signal change, negative = less light; 1.2% of 410,000 active; active = well fitted falling curve with a large enough effect; inconclusive = small, poorly fitted or top-dose-only effect; inactive = no such curve, though single readings can be large or run the other way; tested in HEK293T cells; note: % is set by controls: 0 for no effect and ±100 for the full control effect; nearly all actives have a fitted effect of over 45% in size; luciferase light after 4 h
# NS1 inh = blocks influenza NS1 protein function; S. cerevisiae slowed by influenza A NS1, growth recovery by OD600; Potency, µM (top dose mostly 46.1 µM), for inactives: at the top dose activity, positive = more growth; 0.4% of 270,000 active; active means well fitted rising curve with a large enough effect; inconclusive means small, poorly fitted or top-dose-only effect; inactive means no such curve, though single readings can be large or run the other way; note: nearly all actives have a fitted effect of over 50% in size
#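 OD600 was taken as the measure of yeast growth restored by compound in an NS1-expressing S. cerevisiae strain. Cells had been washed out of glucose medium and diluted 1:100 into galactose -URA medium, pH 6.0.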
# Cruzain Triton = blocks cruzain activity in presence of Triton detergent; P25779; Potency, µM, for the others: max response, negative = inhibition, usual class: inhibitors; purified cruzain, Z-FR-AMC fluorescence, 0.01% Triton; 0.43% of 200,000 active;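 note: plate controls were neutral wells for no effect and buffer without enzyme for full effect; nearly all actives have a fitted effect of over 40% in size; top concentration of the series not given in the record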
# Target sequence (P25779 123-467 limits assumed): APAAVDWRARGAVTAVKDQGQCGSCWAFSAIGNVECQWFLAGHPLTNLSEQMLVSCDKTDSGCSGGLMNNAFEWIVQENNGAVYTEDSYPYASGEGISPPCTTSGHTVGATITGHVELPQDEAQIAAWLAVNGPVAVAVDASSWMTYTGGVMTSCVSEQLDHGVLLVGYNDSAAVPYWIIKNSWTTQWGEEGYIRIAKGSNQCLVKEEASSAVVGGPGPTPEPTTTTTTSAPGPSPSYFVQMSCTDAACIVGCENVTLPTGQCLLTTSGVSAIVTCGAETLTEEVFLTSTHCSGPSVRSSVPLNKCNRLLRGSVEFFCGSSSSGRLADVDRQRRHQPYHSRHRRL
#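 Cysteine protease activity tested under reducing, mildly acidic conditions (100 mM sodium acetate pH 5.5, 5 mM DTT) plus 0.01% Triton X-100. Cruzain 1.5 nM; substrate Z-FR-AMC 2 uM; 15 min compound preincubation at room temperature.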
# Marburg entry inh = Marburg virus entry inhibition. Marburg virus pseudotyped entry inhibition, cell reporter; control for the full effect not named in the record; about a third of the inactives were read at about 46 µM. Potency, µM (titrated, usually from 37.8 µM), without a hit: at the top dose activity change, negative = inhibition, hits mostly inhibitors. 1.8% of 300,000 active. AID 540276; active = well fitted inhibition curve with a large enough effect; inconclusive = small, poorly fitted or top-dose-only effect, or effect the other way; inactive = flat fitted curve, though single readings scatter; tested in HEK293 cells; about a fifth of its hits are not listed in these tables; note: % is set by controls: 0 for no effect and ±100 for the full control effect; luciferase read-out
# Cruzain inh noDet = inhibitors of Trypanosoma cruzi cruzain without detergent | P25779 | purified cruzain, Z-FR-AMC fluorescence, no detergent | Potency, µM, for inactives: max response, negative = inhibition, hits mostly inhibitors | 2.3% of 200,000 active | AID 1476;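 note: plate controls were enzyme without inhibitor for no effect and buffer without enzyme for full effect; nearly all actives have a fitted effect of over 40% in size; top concentration of the series not given in the record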
#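 Purified cruzain at 1.5 nM, pre-incubated 15 min with compound at room temperature in 100 mM sodium acetate pH 5.5, 5 mM DTT, 0.00005% Triton X-100. Reaction started with 2 uM Z-FR-AMC; AMC fluorescence increase over 60 s gives rate.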
# RE007 growth inh = less growth of the S. pombe RE007 Vpr strain; AID 651644; S. pombe RE007 Vpr strain, BacTiter-Glo ATP luminescence, 24 h; control for the full effect not named in the record; Potency, µM (doses to about 92.2 µM), for the others: at the top dose activity change, negative = less growth; 0.21% of 360,000 active; active = well fitted falling curve with a large enough effect; inconclusive = small, poorly fitted or top-dose-only effect; inactive = no such curve, though single readings can be large or run the other way;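 note: % is set by controls: 0 for no effect and ±100 for the full control effect; nearly all actives have a fitted effect of over 50% in size; the assay follows cell death caused by Vpr and the record does not say whether a fall means rescue or toxicity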
#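 Fission yeast strain RE007, carrying one chromosomally integrated HIV-1 vpr copy, was seeded at OD 0.01 in PMG+AL medium with 23 nL pinned compound. After 24 h at 30 °C and 99% humidity, viability was read by BacTiter-Glo luminescence.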
# Lassa entry inh = inhibitors of Lassa virus binding or cell entry | Lassa virus pseudotype entry inhibition, cell reporter; control for the full effect not named in the record | Potency, µM (series often up to 37.9 µM), for the others: top-dose activity change, negative = inhibition, most hits filed as inhibitors | 1.2% of 300,000 active; active means well fitted inhibition curve with a large enough effect; inconclusive means small, poorly fitted or top-dose-only effect, or effect the other way; inactive means flat fitted curve, though single readings scatter; tested in HEK293 cells; note: % is set by controls: 0 for no effect and ±100 for the full control effect; nearly all actives have a fitted effect of over 50% in size; luciferase read-out
# SARS PLpro yeast = blocks SARS-CoV papain-like protease in a yeast assay; S. cerevisiae expressing SARS-CoV PLpro, growth rescue; control for the full effect not named in the record; Potency, µM (highest dose often 32.9 µM), without a hit: top-dose activity, positive = growth rescue; 0.19% of 330,000 active; active means well fitted rising curve with a large enough effect; inconclusive means small, poorly fitted or top-dose-only effect; inactive means no such curve, though single readings can be large or run the other way; note: 0% is about no effect; nearly all actives have a fitted effect of over 55% in size; growth read by luminescence after 48 h
# An asterisk follows results filed as active; ? = inconclusive; . = no result given; & = joins results of further samples; [ ] = another dose, or the depositor's remark. Unless noted, calls come from the whole dose curve; as a rule, active = well fitted curve in the direction sought with a large enough effect; inconclusive = small, poorly fitted or top-dose-only effect, or another doubt; inactive = no such curve, though single readings can be large; an effect the other way counts as inactive or inconclusive. Potency is the fitted concentration of half-maximal effect.
SMILES,2A StopGo,NS1 inh,Cruzain Triton,Marburg entry inh,Cruzain inh noDet,RE007 growth inh,Lassa entry inh,SARS PLpro yeast
CCN(CC)c1c([N+](=O)[O-])ncn1C,-13%,-7%,6.9%,-16%,-9%,7%,-1%,-6%
COc1ccccc1N1CCN(S(=O)(=O)c2ccccc2)CC1,-13%,0%,0.9%,-2%,-7%,-3%,-1%,-4%
N#C/C(=C/c1cn[nH]c1-c1cccc(Br)c1)C(=O)O,-11%,1%,.,.,.,9%,.,-1%
O=C(CCNC(=O)Cn1ccc2ccccc2c1=O)NCCc1ccccc1Cl,-22%,?,-2.9%,?,?,4%,4%,?
CCOc1ccc(-n2c(Cc3ccccc3)nnc2SCc2nc(-c3cccs3)no2)cc1,0%,.,-8.0%,4%[46.1 µM],11%,.,?,.
Cc1ccc2cc(CN(CCN(C)C)C(=S)Nc3ccccc3)c(=O)[nH]c2c1C,-1%,-8%,.,?,.,0%,?,0%
O=C(COc1cccc(C(F)(F)F)c1)NNC(=O)Cn1c(=O)cnc2ccccc21,-9%,.,.,-22%,.,12%,-1%,0%
CN(C)S(=O)(=O)c1ccc(C(=O)OCCn2cnc3c2c(=O)n(C)c(=O)n3C)cc1,?,.,.,-24%,.,0%,-8%,1%
CCn1cc(C(=O)N2CC(C)CC(C)C2)c(=O)c2cc(S(=O)(=O)N3CCCC3)ccc21 (stereo not given),20%,-4%,.,10%[46.1 µM],.,11%,1%[46.1 µM],-8%
CCOC(=O)C1(NC(=O)CN2C(=O)c3ccccc3C2=O)CCCC1,-7%,.,.,7%,.,-8%,?,.
Cc1ccc(NC(=O)C(=O)NCC(c2cccnc2)N2CCOCC2)cc1Cl (stereo not given),0%,.,-16%,.,?,.,-30%[46.1 µM],.
COCCNc1nc(-n2nc(C)cc2C)nc2sc3c(c12)CCCC3,6%,-63%,-7.0%,?,21%,-18%,?,.
Clc1cc(Br)ccc1OCCCNCc1ccccc1,?,-15%,-3.9%,?,2%,-7%,-4%,-16%
Cn1c(C(=O)N2CCCC(Nc3ccc(F)cc3)C2)cc2ccccc21 (stereo not given),-4%,8%,.,0%[46.1 µM],.,10%,-11%[46.1 µM],9%
O=c1[nH]c(=O)n(Cc2ccccc2)c(O)c1C=NCCN1CCOCC1,.,17%,10%,-19%&-19%,0%,-1%,4%,-2%
Clc1cc(Br)ccc1OCCOCCOc1cccc2cccnc12,-16%,-12%,-4.7%,?,?,4%,-6%,0%
COc1cc(C(=O)Nc2ccc(N3CCOCC3)cc2)ccc1OCc1c(C)noc1C,?,6%,-1.8%,18%,7%,5%,-16%,-15%
COc1ccc(C(=O)N2CCC(C(=O)NC3CC3)CC2)cc1,15%,3%,.,?,.,4%,-7%,-1%
O=C(OC1Cn2c(=O)ccc(=O)n2C1)c1ccc([N+](=O)[O-])cc1,-16%,-5%,-0.3%,2%,-1%,6%,-6%,-23%
COc1ccccc1NC(=O)C1=C(C)Nc2nc(-c3ccco3)nn2C1c1ccccc1 (stereo not given),-19%,.,-5.9%,?,4%,.,?,.
N#C/C(=C/c1ccc(OCc2ccccc2)cc1)C(=O)NC1CCCCC1,-6%,-15%,-0.9%,?,?,-1%,-13%,-4%
O=C(Cn1nnc(-c2cccs2)n1)N1CCOCC1,4%,.,.,?,.,-17%,?,1%
COc1ccc(NC(=O)c2c(N)c(C(=O)c3ccc(OC)cc3)n3ccccc23)cc1,-11%,.,-2.8%,0%[46.1 µM],2%,.,-3%[46.1 µM],.
COc1ccc(CC(=O)N(c2ccccc2)c2nc(C)cs2)cc1,-29%,7%,-5.8%,0%,3%,.,-3%,?
N#CC1=C(N)N(c2ccccc2)C2=C(C(=O)CCC2)C1c1cccs1 (stereo not given),-3%,3%,1.7%,-10%,?,-13%,6%,-4%
COc1ccccc1/C=C/C=N/n1c(C2CCCCC2)n[nH]c1=S,-3%,8%,-7.3%,1%,?,-5%,?,26%
Cc1ncc(CO)c2cc(S(=O)(=O)c3ccc(F)cc3)c(=O)oc12,-11%,1%,-7.6%,.,-11%,-1%,.,13%
Cc1cc(Br)ccc1NC(=O)c1cc2c(=O)n(C)c3cc(Cl)ccc3c2s1,0%,.,-0.3%,-11%[46.1 µM],3%,.,17%[46.1 µM],.
CCCN1CCC(N2CCN(c3ccccc3OC)CC2)CC1,.,?,1.1%,-5%,-2%,.,.,6%
COC(=O)c1ccc2c(c1)S(=O)(=O)NC(=NCCCN1CCOCC1)S2,-7%,1%,-0.4%,-4%,-5%,-7%,-1%,2%
Cn1c(=O)c2cc(C(=O)NCCCN3CCN(c4ccccc4F)CC3)sc2c2ccccc21,-12%,.,-1.4%,21%[46.1 µM],-8%,.,9%[46.1 µM],.
COC(=O)c1ccccc1NS(=O)(=O)c1ccc2[nH]c(=O)[nH]c2c1,-20%,7%,-2.5%,-5%,-6%,1%,-10%,-4%
CCOc1ccccc1NC(=O)CSc1ccc2nnc(CCNS(=O)(=O)c3ccccc3)n2n1,8%,.,-1.2%,.,-6%,.,6%[46.1 µM],.
O=C(NCC(c1cccs1)N1CCOCC1)c1ccc([N+](=O)[O-])cc1 (stereo not given),-3%,-4%,0.8%,12%,11%,-1%,12%,4%
Cc1ccc(CNC(=O)CCNS(=O)(=O)c2ccc(Br)s2)cc1,4%,.,.,12%[46.1 µM],.,7%,0%[46.1 µM],4%
COc1cc2c(cc1OC)C(c1cccs1)N(C(=S)NC(C)C)CC2 (stereo not given),?,.,.,-24%[46.1 µM],.,-1%,?,0%
O=C(C1CCCN(S(=O)(=O)c2cc(Cl)ccc2Cl)C1)N1CCOCC1 (stereo not given),-20%,-8%,.,0%[46.1 µM],.,-5%,-5%[46.1 µM],-8%
O=C1CN(C(=O)NCC(=O)N[C@H](Cc2ccccc2)C(=O)O)c2ccccc2N1,-10%,13%,.,.,.,10%,.,-4%
CC(C)(C)CC(=O)NC1CC(=O)N(c2ccc3c(c2)OCCO3)C1 (stereo not given),-18%,.,-0.8%,.,-5%,.,6%[46.1 µM],.
CN1CCN(S(=O)(=O)c2cnc(Cl)c(Br)c2)CC1,-12%,2%,0.1%,?,-5%,-4%,-2%,-25%
Cc1cc(C)c(OCC(=O)Nc2ccccc2N2CCCCC2)c(C)c1,?,.,.,-19%,.,7%,11%,2%
O=C(NC1CCS(=O)(=O)C1)Oc1ccccc1 (stereo not given),-11%,-2%,6.6%,4%,19%,5%,-1%,8%
Cc1ccc(NC(=O)CCC(=O)n2nc(C)cc2C)c(C)c1,.,0%,1.9%,2%,-3%,0%,13%,5%
O=[N+]([O-])c1ccc(N2CCNCC2)c(Cl)c1,-16%,1%,.,10%,.,5%,13%,0%
COC(=O)c1ccc(C(=O)Nc2ccc(N)cc2N)cc1,10%,-1%,-23%,-2%,-8%,-2%,8%,-2%

# In the list so far, two contain a COOH group:
SMILES,2A StopGo,NS1 inh,Cruzain Triton,Marburg entry inh,Cruzain inh noDet,RE007 growth inh,Lassa entry inh,SARS PLpro yeast
N#C/C(=C/c1cn[nH]c1-c1cccc(Br)c1)C(=O)O,-11%,1%,.,.,.,9%,.,-1%
O=C1CN(C(=O)NCC(=O)N[C@H](Cc2ccccc2)C(=O)O)c2ccccc2N1,-10%,13%,.,.,.,10%,.,-4%

# Following part.
SMILES,2A StopGo,NS1 inh,Cruzain Triton,Marburg entry inh,Cruzain inh noDet,RE007 growth inh,Lassa entry inh,SARS PLpro yeast
Cc1ccccc1NS(=O)(=O)c1ccc(C(=O)N2CCCCCCC2)cc1,-20%,.,.,-9%,.,-5%,-15%,.
CC1=C(c2ccc(Cl)cc2)S(=O)(=O)N=C1N1CCN(c2cccc(C(F)(F)F)c2)CC1,-15%,.,-7.2%,?,-22%,.,-23%[46.1 µM],.
O=[N+]([O-])c1cnccc1Nc1cccc(F)c1,-7%,0%,-2.0%,?,-8%,10%,4%,2%
COc1ccc(-c2cccc(C3CC=CC4C3C(=O)N(Cc3ccccc3)C4c3ccc(OC)c(Cl)c3)c2)cc1 (stereo not given),0%,-5%,.,.,.,-13%,.,1%
Cc1ncc([N+](=O)[O-])n1CCOC(=O)c1ccc(Cl)cc1Cl,-4%,-53%,-4.3%,7%,-6%,-3%,16%,-6%
CC(C)Cc1cc(C(=O)Nc2ccc3c(c2)OCO3)no1,58%[activator],-8%,1.0%,.,-6%,-1%,.,-3%
COc1cc(C(C)=O)ccc1Oc1ncccn1,5%,2%,.,21%[46.1 µM],.,21%,.,-3%
O=C(CSc1nc2ccccc2c(=O)n1CCCN1CCOCC1)c1c[nH]c2ccccc12,-1%,-2%,.,?,.,-2%,?,0%
Cc1ccc(NC(=O)c2nc(S(=O)(=O)Cc3cccc(C)c3)ncc2Cl)cc1,25µM*,.,-6.2%,?,7%,.,?,.
COc1cccc(NC(=O)N2CCC(n3c(C)nc4cccnc43)CC2)c1,-3%,.,0.3%,.,2%,.,-1%[46.1 µM],.
COC(=O)C1(CO)NC(c2cccs2)C2C(=O)N(c3ccccc3)C(=O)C21 (stereo not given),-18%,1%,2.3%,-2%,-26%,-1%,0%,-1%
COc1cc(C(=O)NC2(C(F)(F)F)NC(=O)N(CCCc3ccccc3)C2=O)cc(OC)c1OC (stereo not given),-18%,7%,-7.5%,?,?,5%,?,5%
Cc1ccc(CN2CCNC(=O)C2CC(=O)N(C)C(C2CC2)C2CC2)o1 (stereo not given),5%,-5%,.,-12%[46.1 µM],.,-12%,3%[46.1 µM],1%
COc1ccc(S(=O)(=O)NC2CCCC2)cc1Cl,17%,-9%,.,.,.,-1%,.,-4%
CCCCN(CC)CCCNC(=O)Cn1ncc2c3ccccc3n(C)c2c1=O,-1%,.,5.2%,8%[46.1 µM],-6%,.,5%[46.1 µM],.
Cc1ccc(C)c(OCCCNC2CCCC2)c1C,-28%,.,.,?,.,-3%,?,0%
O=C(N/N=C/c1ccco1)/C(=C/c1cccc([N+](=O)[O-])c1)NC(=O)c1ccccc1,-11%,-6%,-6.7%,-11%,-4%,-5%,16%,3%

# Assay outcomes from PubChem.
